Bioassay records: PubChem, National Center for Advancing Translational Sciences (NCATS)
TRPML1 blocker = human mucolipin-1 channel inhibition | 390,000 tested, 0.02% active | activity change, negative = inhibition, % (no concentration beside the values) | TRPML1-inducible cells, Ca2+ dye fluorescence, FDSS; active compounds read low; inhibition of EC80 agonist-evoked calcium signal | AID 624415; in the data active means activity change below about -50%; inconclusive means about -30% to -50%; inactive means above about -30%;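 note: stimulus is agonist 54-4 at its EC80 concentration; % is set by controls: 0 for no effect and ±100 for the full control effect; compound concentration not given in the record; the text of the record puts the active cut at -80%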
Target sequence (Q9GZU1 whole entry, looked up): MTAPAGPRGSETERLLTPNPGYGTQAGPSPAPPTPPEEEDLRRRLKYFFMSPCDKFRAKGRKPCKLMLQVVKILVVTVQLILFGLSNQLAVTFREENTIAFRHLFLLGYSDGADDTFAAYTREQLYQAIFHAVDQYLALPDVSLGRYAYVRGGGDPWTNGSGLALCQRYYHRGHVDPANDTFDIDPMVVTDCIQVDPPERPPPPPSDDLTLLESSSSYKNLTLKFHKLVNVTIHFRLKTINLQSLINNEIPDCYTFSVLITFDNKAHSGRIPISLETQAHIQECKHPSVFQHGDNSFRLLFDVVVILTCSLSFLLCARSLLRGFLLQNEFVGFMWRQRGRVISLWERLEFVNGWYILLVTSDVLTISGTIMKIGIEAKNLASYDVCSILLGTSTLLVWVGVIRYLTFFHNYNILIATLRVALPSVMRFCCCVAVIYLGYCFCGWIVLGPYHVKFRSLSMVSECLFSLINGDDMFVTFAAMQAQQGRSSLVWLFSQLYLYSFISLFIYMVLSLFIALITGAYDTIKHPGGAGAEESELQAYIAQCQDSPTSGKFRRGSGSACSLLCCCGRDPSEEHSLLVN
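Tet-induced TRPML1-DL cells loaded with Ca8 no-wash calcium dye were read kinetically on FDSS. Compound addition was followed by EC80 agonist 54-4 (4 uM final); inhibition was read over 110 s.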
PINK1 expr mod = PINK1 expression modulation | Potency, µM (series often up to 76.6 µM), without a hit: at the highest dose activation (PINK1 increase), actives largely listed as activators | 410,000 tested, 0.2% active | PINK1 immunofluorescence, high-content cytometry, 24 h; active = well fitted activation curve with a large enough effect; inconclusive = small, poorly fitted or top-dose-only effect; inactive = flat fitted curve, though single readings scatter; cell line not stated here;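 note: potency is the fitted concentration of half-maximal effect; % of control where 0% means no effect; nearly all actives have a fitted effect of over 65% in size; a mitochondrial uncoupler was the plate control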
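Decision-based qHTS: stable cells, 24 h exposure to five compound concentrations, CCCP as control. Fixed cells stained for PINK1 plus nuclear, mitochondrial and cell markers, cytometer read.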
D2 ag = activates the human D2 dopamine receptor | 360,000 tested, 0.084% active | DiscoveRx PathHunter D2 beta-arrestin, luminescence, 90 min; 100% = 57 uM dopamine signal | activation, % (test concentration not listed) | AID 624465; in the data active = activation above about 40%; inconclusive = about 15% to 40%; inactive = below about 15%; note: compound concentration not given in the record; the text of the record calls up to 30% inactive
Target sequence (P14416 whole entry, looked up): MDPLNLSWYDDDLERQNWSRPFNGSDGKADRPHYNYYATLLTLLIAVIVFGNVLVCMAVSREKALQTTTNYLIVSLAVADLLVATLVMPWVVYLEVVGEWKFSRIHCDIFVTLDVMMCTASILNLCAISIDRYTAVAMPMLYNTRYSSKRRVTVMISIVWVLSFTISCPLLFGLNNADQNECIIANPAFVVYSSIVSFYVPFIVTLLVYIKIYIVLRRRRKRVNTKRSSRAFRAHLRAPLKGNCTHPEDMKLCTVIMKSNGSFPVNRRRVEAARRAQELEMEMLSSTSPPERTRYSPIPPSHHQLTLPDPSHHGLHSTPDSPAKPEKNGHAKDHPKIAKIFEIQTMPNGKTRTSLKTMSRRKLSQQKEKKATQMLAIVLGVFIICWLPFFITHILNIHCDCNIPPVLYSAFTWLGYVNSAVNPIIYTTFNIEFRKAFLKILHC
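Agonist mode: compounds alone added to overnight-plated D2 PathHunter cells for 90 min at 37 C, with 57 uM final dopamine (EC100) defining full response. Beta-arrestin recruitment detected by chemiluminescent reagent, read after 1 h at ambient temperature.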
D2 PAM = human D2 receptor positive allosteric modulation | P14416 | DiscoveRx D2 beta-arrestin cells, luminescence, 90 min; 100% = 57 uM dopamine signal | potentiation, % (concentration not given with the values) | 360,000 tested, 0.23% active | AID 624464; active = potentiation of 50% or more; inconclusive = 30% to 50%; inactive = 30% or less;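 note: compound concentration not given in the record; tested on top of an EC20 dose of dopamine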
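PathHunter beta-arrestin assay in DiscoveRx D2 cells. Compounds were added with an EC20 of dopamine (50 nM final) for 90 min at 37 deg C. Luminescence was read 1 h after detection reagent, with 57 uM dopamine as the EC100 control.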
TRPML1 ag = human mucolipin-1 channel agonism; Q9GZU1; TRPML1-expressing cells, Ca2+ dye fluorescence, FDSS; host cell line not named in the record; reference of the full effect not given here; activation, % (no concentration beside the values); 410,000 tested, 0.12% active; in the data active = activation above about 50%; inconclusive = about 30% to 50%; inactive = below about 30%; note: 0% is about no effect; the text of the record puts the active cut at 80%
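Tetracycline-induced TRPML1-DL cells are seeded and incubated overnight before loading with a no-wash Ca2+ dye and quencher. Agonist activity is taken from the 110 s fluorescence read following compound pin-transfer on an FDSS, before EC80 54-4 challenge.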
Six1-Eya2 blk = inhibitors of human Six1/Eya2 interaction | Q15475+O00167 | AlphaScreen GST-Six1/His-Eya2 binding, biochemical; active compounds read low; control for the full effect not named in the record | activity change, % (test concentration not listed) | 360,000 tested, 0.56% active | AID 651725; in the data active = activity change below about -65%; inconclusive = about -30% to -65%; inactive = above about -30%; note: % is set by controls: 0 for no effect and ±100 for the full control effect
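GST-Six1 + His-Eya2 (5X stock: 250/500 nM); Tris pH 8.0, 300 mM NaCl, 0.05% BSA, 0.02% Tween 20; GSH donor/Ni acceptor beads; 1 h 37 °C dark; AlphaScreen readout.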
* = called active by the depositor; u = inconclusive; x = no result given; [ ] = another dose, or the depositor's remark. Not a hit list; any-hit rate near 1%.

SMILES	TRPML1 blocker	PINK1 expr mod	D2 ag	D2 PAM	TRPML1 ag	Six1-Eya2 blk
CCc1ccc(NC2CC(=O)N(c3ccc(OC)cc3OC)C2=O)cc1 (stereo not given)	-4	3.0%[38.3 µM]	-0.1	-14	-0.6	-9
COc1ccc(OCCCC(=O)Nc2ccc(OC)c(S(=O)(=O)N3CCOCC3)c2)cc1	-3	1.0%	6.7	0	0.8	-6
CCOc1ccccc1NC(=O)Nc1c(C)n(-c2ccccc2)c(=O)n1C	1	12%[38.3 µM]	-2.8	2	-0.3	-1
c1ccc2sc(NC3=NCN(C4CCCCC4)CN3)nc2c1	4	11%[38.3 µM]	-1.6	-2	0.1	1
COC(=O)C1CCN(C(=O)c2ccccc2Oc2ccccc2)CC1	4	2.5%	-4.9	-11	0.6	5
CCOC(=O)c1[nH]c(C)c(C(=O)N2CCN(C(=O)OCC)CC2)c1CC	15	-2.6%	0.3	-12	1.0	1
Cc1ccc(C2C(C#N)=C(N)Oc3cc(N)ccc32)cc1 (stereo not given)	x	6.6%	-0.4	0	x	-2
COc1cc(Cn2c(N)c(C#N)c3nc4ccccc4nc32)cc(OC)c1	-5	12%	0.4	1	-0.2	9
C=CCn1c(SCC(=O)c2ccc(OC)cc2)nnc1C(C)NC(=O)c1cccs1 (stereo not given)	-2	0.3%[38.3 µM]	-1.6	-8	0.4	-2
CCOC(=O)N1CCN(C(=O)c2cc(COc3ccc(OC)cc3Cl)on2)CC1	-3	8.0%	2.3	-7	1.9	0
CCCCCCc1ccc(-c2ncc(N)cn2)cc1	16	3.5%[38.3 µM]	1.6	-2	0.8	-3
Cc1cc(N2CCN(c3cccc(C(F)(F)F)c3)CC2)n2nc(-c3ccccc3)nc2n1	3	1.0%	x	x	-0.2	x
CCOC(=O)C1CCCN(S(=O)(=O)c2cc3c(cc2C)NC(=O)CO3)C1 (stereo not given)	-9	-1.6%	x	x	-0.7	x
O=C(COc1ccc(F)cc1Br)NCc1nnc2ccccn12	14	0.2%	-3.6	-28	0.9	-3
COc1cccc(CNC(=O)C2CCCN(C(=O)c3ccc(Cl)cc3)C2)c1 (stereo not given)	24	-1.4%	-6.1	-4	0.0	-1
Cn1c(SCC(=O)N2CCCc3ccccc32)nc2cccnc21	9	-0.6%	-2.1	11	-1.0	2
COc1ccc(-c2cc(-c3nnc(COC(=O)c4ccncc4)o3)c3ccccc3n2)cc1OC	-18	4.1%	-21	9	0.7	-4
CCOC(=O)[C@]12CCC=C1N(Cc1ccc3c(c1)OCO3)C(=O)[C@H](CC(=O)N1CCCC1)C2	x	1.3%	x	x	-0.2	0
COc1cc(CNCc2ccc(OC)c3ccccc23)cc(OC)c1OC	x	8.3%	-6.0	-80	x	14
Oc1c(Br)cc(Br)cc1CNc1ccc(F)cc1	9	26%	-1.1	2	1.0	-18
O=C(Nc1cnn(C23CC4CC(CC(C4)C2)C3)c1)c1cnn2cccnc12	-6	13%[38.3 µM]	-3.1	-8	-0.2	-4
COc1ccc(N2CCN(CC(=O)Nc3ccc(SC(F)F)cc3)CC2)cc1	-1	-0.3%	-2.3	-6	0.7	0
CC(C)N1CCc2c(sc(NC(=O)c3ccc(S(=O)(=O)N4CCc5ccccc54)cc3)c2C(N)=O)C1	1	-1.3%	-2.1	-12	18	-15
COc1ccc(CCOC(=O)c2ccc(NC(=O)CC#N)cc2)cc1	-8	1.1%	-1.2	-12	0.0	-7
Cc1ccc(NC(=O)CNc2ccccc2N2CCCC2=O)cc1S(=O)(=O)N1CCCCC1	-22	3.5%	-2.1	-9	-0.1	2
CCC(CC)C(=O)N1N=C(c2ccc(NS(C)(=O)=O)cc2)CC1c1ccc(C)cc1 (stereo not given)	59	27%	-3.0	-17	-0.5	-5
NC(=O)c1c(N)[nH]c(C(=O)c2ccccc2)c1-c1ccncc1	x	2.3%	x	x	-0.4	1
O=C(Nc1ccc(Br)cc1F)N1CCC(CN2CCc3ccccc3C2)CC1	-3	-1.2%	x	x	2.3	x
Nc1ncnc2nc(SCCOc3ccc(Cl)cc3)[nH]c12	-2	6.8%	1.3	13	-0.7	-9
N=C1C(c2ccccc2)=C(O)CN1c1cccc(S(=O)(=O)N2CCCCC2)c1	29	1.7%	-2.9	-4	0.5	-3
CCOC(=O)Cc1c(C)nc2c(-c3ccccc3)cnn2c1C	1	1.5%	-2.8	-3	0.1	4
N#Cc1c(-n2cccc2)cccc1-n1cccc1	4	0.0%[38.3 µM]	-2.1	-2	1.3	-12
CC(C)CCOc1ccc(C(=O)NCC(c2cccs2)N2CCOCC2)cc1 (stereo not given)	-3	-0.4%	-2.8	-5	2.0	4
C/C(N)=C(/C#N)C(=O)CSc1nncn1-c1ccccc1	24	0.3%	-0.8	2	0.7	4
OCc1c(OCc2cccc(F)c2)ccc2ccccc12	x	0.9%	0.2	11	x	2
CCOC(=O)C1(C)C=C(Nc2cccc(C)c2)C(=O)N1c1ccccc1 (stereo not given)	43	0.5%	x	x	1.8	x
COc1cccc2sc(NNC(=O)C3COc4ccccc4O3)nc12 (stereo not given)	-5	1.9%	-4.0	-8	-0.4	-8
COc1cccc(/C=N/NC(=O)c2ccc(=O)[nH]n2)c1O	22	2.2%	-2.6	-4	0.4	-79*
O=C(CCCC(=O)OCC(Cl)=C(Cl)Cl)Nc1cccc2ccccc12	-10	u	-0.9	-11	2.8	43
C(#CCN1CCCC1)CC(c1ccccc1)c1ccccc1	2	5.4%	-1.3	-15	0.4	-16
CC(CC(=O)NCc1ccc(Cl)cc1)S(=O)(=O)c1ccc2c(c1)NC(=O)CO2 (stereo not given)	-12	-0.8%	2.8	5	-0.7	-5
COC(=O)c1ccc(C(=O)N2CCCC(CNC(=O)c3ccccc3Cl)C2)cc1 (stereo not given)	-4	-2.3%	-1.3	-7	0.7	7
COc1ccc(CN2CC(=O)N3[C@H]4c5ccc(OC)cc5OC[C@@H]4[C@H](c4ccccc4)[C@]3(C)C2=O)cc1	54	0.3%	1.7	-5	0.7	-18
S=c1[nH]nc(NCCCN2CCOCC2)s1	-7	2.2%	-4.6	-18	-0.5	-2
COc1cccc(-c2nn(C)c3sc(C(=O)N4CCN(c5ccccc5)CC4)cc23)c1	-2	0.8%	-0.3	11	-0.1	u
COc1ccc(-c2nsc(SCC(=O)NCc3ccc4c(c3)OCO4)n2)cc1	0	7.8%	-0.3	-11	2.2	0
O=C(NCc1ccc2c(c1)OCO2)c1cc(-c2ccccc2)c(N2CCOCC2)s1	8	0.7%	-0.4	-8	1.4	10
Cc1ccccc1C(=O)Nc1ccc2c(c1)nc(CCNC(=O)c1ccco1)n2C	9	-0.9%	1.7	1	-1.0	-2
COc1cc(OC)cc(C(=O)NCCCN2CCN(CCCNC(=O)c3cc(OC)cc(OC)c3)CC2)c1	17	4.0%	-5.3	-9	0.5	-9
Cn1c(SCc2ccccc2Br)nc2ccccc2c1=O	10	4.3%	-2.7	-12	1.3	11
CCCCCCC(C)OC(=O)c1ccccc1C(=O)O (stereo not given)	-12	-2.7%	-2.0	6	2.7	3
Cc1ccc2occ(-c3cc(-c4ccc(F)cc4)nc4c3COc3ccc(F)cc3-4)c(=O)c2c1	5	0.8%	x	x	-0.1	x
CCOc1ccc(-n2c(C)nc3cc(C(=O)NCc4ccc(C)cc4)ccc32)cc1	72	0.9%	x	x	6.1	x
CCCN1CCC(NC(=S)Nc2ccc(C(=O)OCC)cc2)CC1	-4	0.2%	1.0	-9	1.8	1
CC(C)N(Cc1cc2ccccc2[nH]c1=O)C(=O)C1CCCCC1	-4	0.2%	-1.7	-9	-0.8	12
O=[N+]([O-])c1cccnc1Oc1cccnc1	-11	-2.4%	4.8	-7	-0.2	9
COc1ccc(-c2nn(-c3ccccc3)cc2C(=O)NCC(c2cccs2)N2CCOCC2)cc1 (stereo not given)	3	-1.0%	-4.4	-30	0.0	-4
COc1ccc(C(CNC(=O)c2ccc(S(=O)(=O)Nc3ccc(F)cc3)cc2)N(C)C)cc1 (stereo not given)	14	1.2%	-3.5	-21	9.6	5
COc1ccc(-c2cc3nc(-c4ccccc4)cc(N4CCN(C(=O)c5ccoc5)CC4)n3n2)cc1	x	0.9%	3.9	x	x	13
Cc1ccc(C)c(S(=O)(=O)N/N=C/c2cccnc2)c1	-13	-0.1%	-8.2	-15	-0.2	2

Structures above shown as hits in Six1-Eya2 blk:
mol | TRPML1 blocker | PINK1 expr mod | D2 ag | D2 PAM | Six1-Eya2 blk
COc1cccc(/C=N/NC(=O)c2ccc(=O)[nH]n2)c1O | 22 | 2.2% | -2.6 | -4 | -79*

Continuation.
SMILES	TRPML1 blocker	PINK1 expr mod	D2 ag	D2 PAM	TRPML1 ag	Six1-Eya2 blk
Cc1ccc(NC(=O)Cn2c(=O)n(CCCCCC(=O)NCc3ccc(F)cc3)c(=O)c3sccc32)cc1C	5	4.2%	x	x	2.4	x
COc1ccc(C(=O)Nc2ccc(-c3n[nH]c(=S)o3)cc2)cc1	x	0.2%	0.2	-5	x	-14
CC(C)C(=O)OCc1cc(=O)n2nc(C3CC3)sc2n1	-14	-0.4%	x	x	-0.3	x
CCOC(=O)CCC(=O)O[C@H]1[C@H](O[C@@H]2[C@@H](C)[C@H](O[C@H]3C[C@@](C)(OC)[C@@H](O)[C@H](C)O3)[C@@H](C)C(=O)O[C@H](CC)[C@@](C)(O)[C@H](O)[C@@H](C)C(=O)[C@H](C)C[C@@]2(C)O)O[C@H](C)C[C@@H]1N(C)C	24	0.1%	0.9	-2	-0.2	0
COc1ccc(CCNC(=O)c2ccc(-c3ccc([N+](=O)[O-])cc3)o2)cc1OC	8	4.6%	8.8	u	-0.1	-25
Cc1cc(C)cc(NC(=O)CSc2nnc(-c3ccncc3)o2)c1	4	2.3%	-3.3	-6	-0.9	4
O=C(CCNC(=O)c1ccc(Cl)cc1)Nc1ccc(Cl)cc1F	11	-0.5%	-1.0	-5	2.0	3
COc1ccccc1NC(=S)NCc1ccc(S(N)(=O)=O)cc1	-8	1.9%	-7.1	-4	0.7	2
Cc1ccc(C)c(-n2nnnc2Sc2nnnn2-c2ccccc2)c1	0	-5.1%	-1.9	-6	0.4	1
O=C(O)c1ccccc1N(Cc1ccccc1)C(=O)COc1ccccc1	-7	-0.4%	0.0	-4	0.1	0
CSc1ccccc1NC(=O)CSCc1ccc(C)cc1	14	6.2%	-4.1	-11	-0.7	22
CCOC(=O)Cn1c2ccccc2c2nc3ccccc3nc21	5	-0.8%	-5.9	-2	0.6	27

An excerpt of these results, comma-delimited:
smiles,TRPML1 blocker,PINK1 expr mod,D2 ag,D2 PAM,TRPML1 ag,Six1-Eya2 blk
COc1ccc(CCNC(=O)c2ccc(-c3ccc([N+](=O)[O-])cc3)o2)cc1OC,8,4.6%,8.8,u,-0.1,-25
Cc1cc(C)cc(NC(=O)CSc2nnc(-c3ccncc3)o2)c1,4,2.3%,-3.3,-6,-0.9,4
O=C(CCNC(=O)c1ccc(Cl)cc1)Nc1ccc(Cl)cc1F,11,-0.5%,-1.0,-5,2.0,3
